LANA-nucl inh: LANA-nucleosome interaction inhibition; z-score (concentration not given with the values); AID 720717; 0.3% of 51,000 active; FITC-LANA1-23 / chicken nucleosome fluorescence polarization; hits give low values;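 active = both repeat wells score below -2 in polarization z-score versus plate sample wells, excluding overly bright wells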;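 also: 100 nL library stock added to about 30 µL; numbers are from one replicate; some results filed as inactive read as strong as hits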
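Test system: purified chicken nucleosomes with FITC-labelled LANA N-terminal peptide (1-23); Input: 240 nM purified chicken nucleosomes (480 nM peptide binding sites), final; Medium: TEN-BT buffer, pH 7.5; Timing: 10–45 min, room temperature; Technique: fluorescence polarization, 480 nm excitation, 535 nm parallel and perpendicular emission; Replication: duplicates.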
BasE inh: inhibitors of Acinetobacter baumannii siderophore enzyme BasE. purified BasE, fluorescence polarization binding displacement. inhibition, % (concentration not given with the values). 0.1% of 84,000 active;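 active = both replicates above 25% with normal brightness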;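 also: 0% = negative plate control signal and 100% = positive plate control signal; stock transfer was 100 nL into about 30 µL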
* hit, by the source's call; . = no result given. Not all compounds are listed; rates above refer to the full screens.

Values run as follows: LANA-nucl inh	BasE inh
Cc1cc(C(=O)COC(=O)Cc2ccsc2)c(C)n1NC(=O)c1ccccc1
  .	0.5
CCOC(=O)c1ccc(Nc2ccc(-c3ccc(OC)c(OC)c3)nn2)cc1
  -0.053	2.1
NNC(=O)CNC(=O)C1COc2ccccc2O1 (stereo not given)
  .	0.3
Cc1oc2cc(OC(C)C)ccc2c(=O)c1-c1ccccc1
  -0.23	3.7
O=C1NC(=O)/C(=C\c2cn(Cc3ccccc3F)c3ccccc23)N1
  .	1.8
CC1=C(C(=O)N2CCOCC2)C(c2ccccc2)NC(=O)N1 (stereo not given)
  .	1.0
COc1ccc(-n2nc(C(=O)N3CCC(C)CC3)c3c4ccccc4n(C)c3c2=O)cc1
  -0.24	2.2
CN(C(=O)Cc1cccc2ccccc12)C(C)(C)C#N
  .	2.2
Cc1cccc2sc(N)nc12
  0.56	2.2
CCSc1ccc(NC(=O)CC2c3ccccc3Oc3ccccc32)cc1
  .	1.8

Values run as follows: LANA-nucl inh	BasE inh
CC(C)Cn1cc(C(=O)NCc2cccnc2)c2c3ccccc3n(C)c2c1=O
  -0.89	3.1
O=c1c2ccccc2nc2n1CC(=NCc1ccccc1)N(Cc1ccccc1)C2
  .	0.6
CCn1c(CNC(=O)c2cccc(C)c2)nnc1SCC(=O)NC1=NCCS1
  1.3	-1.1
COc1ccc(Nc2ncc3c(n2)CC(c2ccccc2)CC3=O)cc1 (stereo not given)
  .	0.3
CC1N=C(SCC#N)N2C(C)N=C(SCC#N)N12 (stereo not given)
  .	2.4
COc1ccc(N2CCN(C(=O)CCC3=NS(=O)(=O)c4ccc(C(F)(F)F)cc4N3)CC2)cc1
  .	-0.4
CN(C)CCN1C(=O)C(=O)/C(=C(/O)c2ccc(S(=O)(=O)N3CCOCC3)cc2)C1c1ccc(Br)cc1 (stereo not given)
  0.14	1.0
COc1ccc(-c2cc(C3CC3)nc(SCC(N)=O)c2C#N)cc1
  -0.18	1.3
O=C(Cn1cc(C(=O)c2ccco2)c2ccccc21)Nc1ccccc1
  -1.2	-0.9
CC(Sc1nnc(-c2ccccc2F)n1CCc1ccccc1)C(=O)NCc1ccco1 (stereo not given)
  .	0.5

Values run as follows: LANA-nucl inh	BasE inh
Cc1cc(=S)[nH]c2cc(Br)ccc12
  .	0.8
CC(=O)N(C)Cc1nc(-c2ccc(Cl)cc2)no1
  -0.81	0.7
Cc1ccc(S(=O)(=O)NC(=O)N(C)CCc2ccccn2)cc1
  .	2.4
COC(=O)C1CC2(C(=O)O)CC(C(=O)O)(CC(C(=O)OC)C2=O)C1=O (stereo not given)
  -0.13	-1.2
Brc1ccc(N=Cc2ccc[nH]2)cc1
  -0.11	-1.6
CCC(C)NS(=O)(=O)c1ccc(S(=O)(=O)N(Cc2ccc(C)o2)C2CCCC2)cc1 (stereo not given)
  2.6	-4.4
CN(C1CCCCC1)S(=O)(=O)c1ccccc1C#N
  .	-0.6
Cc1cc(C)nc(NNC(=S)Nc2ccc(S(=O)(=O)N3CCOCC3)cc2)n1
  .	-3.5
Cc1nnc(SCC(=O)NCc2ccccc2)n1C(C)C
  0.48	2.0
COc1ccc(Cl)cc1NC(=O)c1nnn(CC(=O)Nc2c(C)cc(C)cc2C)c1N
  -0.005	0.7

Some of the entries above in another layout:
> Cc1ccc(S(=O)(=O)NC(=O)N(C)CCc2ccccn2)cc1
  LANA-nucl inh: .	BasE inh: 2.4
> COC(=O)C1CC2(C(=O)O)CC(C(=O)O)(CC(C(=O)OC)C2=O)C1=O (stereo not given)
  LANA-nucl inh: -0.13	BasE inh: -1.2
> Brc1ccc(N=Cc2ccc[nH]2)cc1
  LANA-nucl inh: -0.11	BasE inh: -1.6
> CCC(C)NS(=O)(=O)c1ccc(S(=O)(=O)N(Cc2ccc(C)o2)C2CCCC2)cc1 (stereo not given)
  LANA-nucl inh: 2.6	BasE inh: -4.4

Going on with the list.
Values run as follows: LANA-nucl inh	BasE inh
O=C1Nc2ccccc2/C1=c1\sc2nc3ccccc3n2c1=O
  -0.22	-1.4
C/C(=C/C(=O)c1ccc(C)cc1)N1CCC(C(N)=O)CC1
  .	1.9
Cc1cc(=O)oc2[nH]c(=S)[nH]c(=O)c12
  0.2	3.1
O=C(CSc1n[nH]c(-c2ccncc2)n1)c1ccc[nH]1
  .	1.2
CC1CC(=O)N(CC(=O)Nc2ccccc2)c2ccccc2S1(=O)=O (stereo not given)
  -0.16	-0.1
O=C1CCCC(O)=C1N=Nc1ccccc1C(=O)O
  .	-1.2
COCCNC(=O)c1ccc(S(=O)(=O)N2CCC(C)CC2)cc1
  .	0.5
O=C(c1ccco1)N1C(=O)c2cccc3cccc1c23
  0.19	-2.0
CC1(C)C(=O)Nc2ccccc2N1C(=O)CSc1ncnc2ccccc12
  .	-1.9
CC1(C)CCCC2=C1CC1C(=O)NNC(=O)C1C2 (stereo not given)
  .	-2.0

Reprinted at random: five entries already listed.
Values run as follows: LANA-nucl inh	BasE inh
CC1(C)C(=O)Nc2ccccc2N1C(=O)CSc1ncnc2ccccc12
  .	-1.9
O=C(CSc1n[nH]c(-c2ccncc2)n1)c1ccc[nH]1
  .	1.2
C/C(=C/C(=O)c1ccc(C)cc1)N1CCC(C(N)=O)CC1
  .	1.9
CC1(C)CCCC2=C1CC1C(=O)NNC(=O)C1C2 (stereo not given)
  .	-2.0
COCCNC(=O)c1ccc(S(=O)(=O)N2CCC(C)CC2)cc1
  .	0.5

(continued)
Values run as follows: LANA-nucl inh	BasE inh
N#Cc1cc2c(nc1SCc1ccccc1)CCCC2=O
  0.19	-1.9
N#Cc1c(-c2ccccc2)nc(SCC(=O)NC2CCCCC2)[nH]c1=O
  -1.8	5.6
CCc1ccccc1NCC(=O)Nc1cccc(OC)c1
  .	-0.2
Cc1cccc2c1N(C(=O)c1c(-c3c(Cl)cccc3Cl)noc1C)CCC2
  .	0.2
O=c1c2ccc(-c3nnc4n3-c3ccccc3SC4)cc2nc2n1CCCCC2
  .	-0.9
O=C1CCC(C(=O)OCc2cccc(C(F)(F)F)c2)=NN1
  .	0.7
CC(N)COc1ccc(Cl)cc1 (stereo not given)
  0.74	-5.0
CN(CC(=O)Nc1ccc(C(N)=O)cc1)Cc1ccc(C(F)(F)F)cc1
  .	0.3
O=C(O)c1c(F)c(F)c(F)c(F)c1Nc1cccc(C(F)(F)F)c1
  -0.3	-2.1
CCN(CC)c1ccc(/C=C2\CCC(/C=N/NC(=O)c3ccoc3C)=C2N2CCOCC2)cc1
  .	-11

Values run as follows: LANA-nucl inh	BasE inh
CC(C)CCNC(=O)C1CCN(Cc2ccccc2Cl)CC1
  -0.26	-0.6
COc1ccc(N(CCC(=O)O)S(=O)(=O)c2cccc(Cl)c2)cc1
  .	5.7
CCN(CC)Cc1ccc(O)c2ncccc12
  0.41	6.6
CSc1ccc(S(=O)(=O)NC2CCCCC2)cc1
  0.19	-0.6
Cc1ccc(CN2C(=O)/C(=C\c3ccc(C(=O)N4CCN(c5ncccn5)CC4)cc3)Oc3ccccc32)cc1
  -0.033	-1.9
CCSC1=C(C#N)C(c2ccc(C)cc2)C(C(=O)OC)C(=O)N1 (stereo not given)
  -0.46	-0.1
O=C(Cn1cnc2ccccc21)c1ccccc1
  0.56	11
COc1ccc2c(CN(C)c3ccccc3)cc(=O)oc2c1
  .	-1.8
O=C(CC1CC2CCC1C2)N1CCN(S(=O)(=O)c2ccc(F)cc2)CC1 (stereo not given)
  0.004	0.7
O=c1[nH]c(/C=C2\C=Nc3ccc(Br)cc32)c(O)n1Cc1ccc(Br)cc1
  .	0.4

Values run as follows: LANA-nucl inh	BasE inh
O=C(CC1CCCCC1)NCC1CCCO1 (stereo not given)
  2.8	-0.9
CC(C)CC(F)Cc1cnc(=O)[nH]c1 (stereo not given)
  0.19	-1.3
N#Cc1nc(-c2ccc(Cl)cc2)oc1NCc1ccccc1
  .	1.3
COc1cccc(Oc2coc3cc(OCC(N)=O)ccc3c2=O)c1
  -0.59	0.5
CN(C)c1cc(C(=O)O)ccn1
  0.2	1.2
COc1ccc(CC(=O)N2N=C(c3ccncc3)CC2(O)C(F)(F)F)cc1 (stereo not given)
  -0.16	-3.1
COc1ccc(/C=C2/SC(=S)N(C)C2=O)cc1
  .	2.4
CCOC(=O)C1CCC(CNC(=O)Nc2ccc3nc(N4CCN(C)CC4)cc(C)c3c2)CC1 (stereo not given)
  .	-5.3
COc1ccc(OC)c(S(=O)(=O)N2CCOCC2)c1
  0.015	-2.4
CCOC(=O)N1CC=C2C(C#N)=C(N)C(C#N)(C#N)C(Cc3ccccc3)C2C1 (stereo not given)
  -0.13	-2.2

Values run as follows: LANA-nucl inh	BasE inh
CC1(C)c2ssc(=S)c2-c2ccccc2N1C(=O)CSc1ncn[nH]1
  .	4.0
COc1ccc(O)c(CN2CCCCC2)c1
  1.8	-3.5
CC1(C)CN(c2cccc(C(=O)c3cn(-c4ccc(C(F)(F)F)cc4)nn3)c2)C1=O
  -0.27	.
CCOc1ccccc1NC(=O)C1CCCN(C(=O)Nc2ccccc2)C1 (stereo not given)
  -0.39	1.7
C=CCN1C(=O)C2C(C1=O)C1C=CC2C12CC2 (stereo not given)
  -0.44	-2.3
Cc1ccc(N2CC(C(=O)OCC(=O)C(C)(C)C)CC2=O)cc1 (stereo not given)
  -0.47	-1.9
CCOC(=O)c1ccc(NC(=O)/C(=C\c2ccco2)NC(=O)c2ccccc2Br)cc1
  0.14	0.0
NCCC12CC3CC(C1)CC(CCN)(C3)C2
  1.7	-14
COc1ccc(C(CNc2ccc(C(F)(F)F)cn2)N(C)C)cc1OC (stereo not given)
  .	-2.5
CC(C)C(=O)Nn1cnc2c(cnn2-c2ccccc2)c1=O
  -1.2	-2.4

mol	LANA-nucl inh	BasE inh
CCNC(=O)N(Cc1nc(-c2ccc(C)cc2)no1)C1CCCCC1	-0.46	-3.3
Cc1ccc(NC(=S)C(C#N)C(=O)N2CCC(C)CC2)c(C)c1 (stereo not given)	.	-13
O=c1c2c(-c3ccc(Cl)cc3)csc2ncn1-n1cccc1	.	2.0
CN(CC(=O)Nc1ccccc1C(F)(F)F)C(=O)CSc1nnc(-c2ccccc2F)o1	.	-1.4
COc1ccc(NC(=O)Cn2cnnn2)c(OC)c1	.	0.0
O=S(=O)(Cc1ccccc1)N/N=C/c1ccc2c(c1)OCO2	0.68	-0.1
NC(=O)CSc1nnc(-c2ccco2)n1N	-0.19	-1.0
C=CCn1c(COc2ccccc2F)nnc1SC(C)C(=O)NC(N)=O (stereo not given)	.	0.3

mol	LANA-nucl inh	BasE inh
Cc1nn(-c2ccc(Cl)cc2)c2sc(C(=O)NC(C)(C)CO)cc12	.	2.3
O=C(Nc1ccc(I)cn1)c1ccc(-c2ccc(Cl)cc2)o1	-0.15	-1.0
CN1CCN(c2ccccc2NC(=O)Cn2cnc3onc(-c4ccc(F)cc4)c3c2=O)CC1	.	-6.0
Cc1cc2[nH]c(=O)c(=O)[nH]c2cc1S(=O)(=O)NCc1cccs1	0.16	0.7
CCc1nc(NC(=O)NS(=O)(=O)c2ccccc2C(=O)OC)nc(OC)n1	-0.14	0.2
c1ccc2c(c1)NC(c1ccncc1)n1c-2nc2ccccc21 (stereo not given)	.	0.6
CCOC(=O)/C(C#N)=C1/NC(=O)Nc2ccccc21	.	1.1
O=C1CN(c2ccccc2)C(=O)C1C(=O)N1CCOCC1 (stereo not given)	-0.41	0.8

mol	LANA-nucl inh	BasE inh
O=C(NCCO)c1c(O)nc2ccccn2c1=O	0.29	2.0
CCc1nnc2c3ccccc3nc(Nc3cccc(C(=O)O)c3)n12	.	1.5
CS(=O)(=O)c1ccc(C(=O)OCc2cc(=O)n3ccsc3n2)cc1	.	-1.1
COc1ccc(-c2nc(SC)c(S(=O)(=O)c3ccc(C)cc3)[nH]2)cc1	.	1.8
COc1ccc(C(O)=C2C(=O)c3ccccc3C2=O)cc1	-0.17	.
NNc1c(Cl)c(Cl)nc(C(=O)O)c1Cl	.	0.4
NCCCN(Cc1ccco1)C1CCCC1	0.42	-1.3
Cc1nn(CC(C)C)c(Cl)c1C(=O)N1CCCC1c1nc2ccccc2s1 (stereo not given)	.	1.5

mol	LANA-nucl inh	BasE inh
O=C1CCCc2c1n(CCN(Cc1ccccc1)Cc1ccccc1)c1ccc(Cl)cc21	.	0.0
COc1ccc(/C=N/NC(=S)Nc2c(C)n(C)n(-c3ccccc3)c2=O)cc1OC	0.49	1.9
O=C(CSc1nncs1)NC(=O)C1CCCCC1	.	2.8
O=C(O)/C=C/S(=O)(=O)c1ccccc1	.	-1.3
Cc1nn(C)cc1CNC(=O)c1ccccc1Br	0.66	-1.7
Cc1ccc(S(=O)(=O)CC(=O)N(C)C)cc1	-0.31	0.5
CCOc1ccc2cc(C(=O)c3ccc(OC(F)F)cc3)oc2c1	.	0.7
CC(NC(=O)C1CCC(=O)N1Cc1ccccc1Cl)c1ccc2c(c1)OCCO2 (stereo not given)	0.76	-0.2

mol	LANA-nucl inh	BasE inh
Cn1c2c(c(=O)n(C)c1=O)C(O)(C(F)(F)F)C(=O)N2 (stereo not given)	-0.41	0.8
CN(C)C=NC(=O)c1ccc(-c2cccs2)s1	.	-4.4
CC(=O)N(c1ccccc1)c1nc(CSc2nnc(-c3ccc(Cl)cc3)o2)cs1	.	0.6
OC(CN1CCC(O)(c2ccc(Cl)cc2)CC1)C(F)(F)F (stereo not given)	-1.4	.
Cc1nnc(SCC(=O)c2ccc3c(c2)NC(=O)CO3)n1C1CC1	.	-0.2
C/C(=N\O)C(=O)NCc1cccnc1	-0.79	0.3
COc1ccccc1C1CCN(C(=O)c2ccco2)CC1	.	-2.3
CCn1c(C)[n+](CC)c2ccccc21	.	2.4
CC1(C)Cc2c(c(N3CCOCC3)nc3sc4c(NCCCO)nnnc4c23)CO1	0.64	1.1
CC(Sc1nnc(-c2c[nH]c3ccccc23)o1)C(=O)Nc1ccccc1 (stereo not given)	.	-0.2
CC(C)S(=O)(=O)c1csc(NC(=O)Nc2cc(C(F)(F)F)cc(C(F)(F)F)c2)c1Cl	.	1.3

High-throughput results (PubChem)
